# CtBP-E1A inh: qHTS Assay for Inhibitors of the CtBP/E1A Interaction. CtBP / adenovirus E1A interaction (AlphaScreen). AlphaScreen GST-E1A/His-CtBP binding, 1536-well; hits give low values; control for the full effect not named in the record. activity change, % (concentration not given with the values). 0.49% of 340,000 active. AID 651724, 2012; in the data active means activity change below about -65%; inconclusive means about -30% to -65%; inactive means above about -30%; also: % is scaled to controls: 0 for no effect and ±100 for the full control effect
#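 In 5 uL wells, 23 nL compound meets equimolar GST-E1A and His-CtBP (5X stock 125 nM each) for 2 h, 37 °C. Beads (5X, 50 ug/mL) then 1 h, 37 °C, dark.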
# Six1-Eya2 blk: qHTS Assay for Inhibitors of the Six1/Eya2 Interaction. AlphaScreen GST-Six1/His-Eya2 binding, biochemical; hits give low values; control for the full effect not named in the record. activity change, % (concentration not given with the values). AID 651725, 2012. Homeobox protein SIX1 (Homo sapiens) + Protein phosphatase EYA2 (Homo sapiens), …. 0.56% of 360,000 active; in the data active = activity change below about -65%; inconclusive = about -30% to -65%; inactive = above about -30%; also: % is scaled to controls: 0 for no effect and ±100 for the full control effect
# Target sequence (O00167 whole entry, looked up): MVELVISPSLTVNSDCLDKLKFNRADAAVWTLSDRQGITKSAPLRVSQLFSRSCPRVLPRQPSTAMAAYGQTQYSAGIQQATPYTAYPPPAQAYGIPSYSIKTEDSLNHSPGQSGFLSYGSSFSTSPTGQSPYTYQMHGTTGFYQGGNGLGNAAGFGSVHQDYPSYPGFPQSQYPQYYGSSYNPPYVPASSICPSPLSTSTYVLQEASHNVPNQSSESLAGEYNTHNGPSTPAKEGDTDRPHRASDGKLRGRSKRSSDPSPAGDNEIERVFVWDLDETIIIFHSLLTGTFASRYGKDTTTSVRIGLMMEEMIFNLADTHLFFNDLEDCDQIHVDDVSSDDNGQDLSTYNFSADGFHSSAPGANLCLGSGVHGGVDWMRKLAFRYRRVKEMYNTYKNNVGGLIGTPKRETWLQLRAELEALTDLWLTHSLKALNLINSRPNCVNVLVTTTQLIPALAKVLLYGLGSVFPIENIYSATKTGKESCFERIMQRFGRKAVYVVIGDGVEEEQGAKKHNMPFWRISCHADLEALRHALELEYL
# Target sequence (Q15475 whole entry, looked up): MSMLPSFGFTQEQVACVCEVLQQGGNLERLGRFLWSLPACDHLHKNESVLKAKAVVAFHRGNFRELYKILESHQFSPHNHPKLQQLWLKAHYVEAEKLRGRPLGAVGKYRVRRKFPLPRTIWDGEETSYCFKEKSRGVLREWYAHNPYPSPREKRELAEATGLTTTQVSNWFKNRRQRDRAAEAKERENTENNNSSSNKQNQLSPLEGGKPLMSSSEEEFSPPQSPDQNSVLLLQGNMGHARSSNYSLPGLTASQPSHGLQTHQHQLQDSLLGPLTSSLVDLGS
#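 AlphaScreen with GST-Six1 and His-Eya2 (5X mix: 250 nM and 500 nM), glutathione donor and nickel acceptor beads; buffer 50 mM Tris pH 8.0, 300 mM NaCl, 1 mM TCEP; 1 h at 37 C in the dark.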
# D2 PAM: Beta-Arrestin HTS for Positive Allosteric Modulators of the Human D2 Dopamine Receptor: Potentiators | D(2) dopamine receptor (Homo sapiens), P14416 | DiscoveRx D2 beta-arrestin cells, luminescence, 90 min; 100% = 57 uM dopamine signal | potentiation, % (test concentration not listed) | 0.23% of 360,000 active; active = potentiation of 50% or more; inconclusive = 30% to 50%; inactive = 30% or less;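 also: compound concentration not given in the record; tested on top of an EC20 dose of dopamine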
#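 PathHunter beta-arrestin assay in DiscoveRx D2 cells. Compounds were added with an EC20 of dopamine (50 nM final) for 90 min at 37 deg C. Luminescence was read 1 h after detection reagent, with 57 uM dopamine as the EC100 control.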
# gsp antagonist: qHTS for Antagonists of gsp, the Etiologic Mutation Responsible for Fibrous Dysplasia/McCune-Albright Syndrome: qHTS; gsp-mutant cells, cAMP HTRF, 30 min; control for the full effect not named in the record; Potency, µM (titrated, usually from 76.9 µM), inactives show at the highest dose activity change, negative = inhibition, actives largely listed as inhibitors; 0.4% of 340,000 active; AID 624288, 2012; active = falling curve of any shape with a large fitted effect; inconclusive = falling curve, mostly with a smaller effect; inactive = flat or rising curve; cell line not stated here;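 also: intracellular cAMP measured with PDE inhibitor Ro 20-1724 present during compound exposure; potency is read from the fitted curve at half-maximal effect; % is scaled to controls: 0 for no effect and ±100 for the full control effect; nearly all actives have a fitted effect of over 65% in size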
#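 G418-selected cells were plated in DMEM/10% FBS for 16-24 h at 37C, then treated with compounds plus the PDE inhibitor […] (300 uM solution added) for 30 min at 37C. Intracellular cAMP was measured by HTRF after 30 min lysis at room temperature.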
# gsp ag: qHTS for Agonist of gsp, the Etiologic Mutation Responsible for Fibrous Dysplasia/McCune-Albright Syndrome: qHTS; gsp mutant cells, cAMP HTRF, 30 min; control for the full effect not named in the record; Potency, µM (highest dose often 76.9 µM), without a hit: at the top dose activation (cAMP increase), actives largely listed as activators; 0.13% of 340,000 active; AID 624287, 2012; active = well fitted activation curve with a large enough effect; inconclusive = small, poorly fitted or top-dose-only effect, or another doubt; inactive = no such curve, though single readings can be large or run the other way; cell line not stated here;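 also: phosphodiesterase inhibitor Ro 20-1724 added with compounds to block cAMP breakdown; potency is read from the fitted curve at half-maximal effect; nearly all actives have a fitted effect of over 60% in size; about a fifth of the inactives were tested at one dose only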
#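 Cells stably selected in G418 were plated at 2000/well, grown 16-24 hr, then given compounds in DMSO with the PDE inhibitor […] (300 uM solution added) for 30 min at 37C; cAMP was read by HTRF.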
# D2 ag: Beta-Arrestin HTS for Positive Allosteric Modulators of the Human D2 Dopamine Receptor: Agonists; D(2) dopamine receptor (Homo sapiens), P14416; DiscoveRx PathHunter D2 beta-arrestin, luminescence, 90 min; 100% = 57 uM dopamine signal; activation, % (test concentration not listed); 0.084% of 360,000 active; AID 624465, 2012; in the data active = activation above about 40%; inconclusive = about 15% to 40%; inactive = below about 15%; also: compound concentration not given in the record; the text of the record calls up to 30% inactive
#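 DiscoveRx PathHunter D2 beta-arrestin cells (2,100/well) attached overnight, then compound-stimulated 90 min at 37 C in HBSS/10 mM HEPES/0.1% Tween-20 buffer; beta-galactosidase complementation read by luminescence after 1 h at ambient temperature. Dopamine 57 uM final (EC100) as control.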
# Numbers without * were called inactive; ? = inconclusive; nt = not tested or not shown; [ ] = remark or other dose.
item	structure	CtBP-E1A inh	Six1-Eya2 blk	D2 PAM	gsp antagonist	gsp ag	D2 ag
1	COc1ccc(CC(=O)Nc2ccc(S(=O)(=O)Nc3ncccn3)cc2)cc1	8	0	-7	20%	3%	-0.8
2	CN1CCN(C(=O)c2cc(COc3c(F)cccc3F)on2)CC1c1ccccc1 (centres undefined)	-12	-10	0	-6%	15%	-0.1
3	Cc1ccc(S(=O)(=O)NC(CC(=O)O)c2ccco2)cc1 (centres undefined)	1	2	-8	1%	-5%	0.3
4	CCN(c1ccccc1)S(=O)(=O)c1cc(C(=O)OC2CCOC2=O)ccc1C (centres undefined)	5	-1	1	?	-22%	-0.8
5	O=C1CC(=O)N(c2cccc(F)c2)N1	-9	-10	-1	-1%	?	-3.4
6	CN(NS(=O)(=O)c1ccc(Cl)cc1)c1ncc(C(F)(F)F)cc1Cl	5	1	0	-5%	1%	4.0
7	Cc1cc(C)n(-c2ccc(NC(=O)C3CCN(Cc4ccc(C)o4)CC3)cc2)n1	nt	2	-8	2%	21%	2.0
8	COC(=O)C1=C(C(=O)c2ccccc2)C(c2ccc(O)c(OC)c2)n2nnnc2N1 (centres undefined)	-1	9	-13	-14%	-19%	-3.9
9	Cc1ccc(CN(C)C(=O)c2cc(Br)c(Br)s2)o1	11	-5	-3	-11%	-63%[inhibitor]	3.1
10	Cc1ccc(F)cc1NC(=O)COC(=O)C1CC2CCCC(C1)C2=O (centres undefined)	1	-20	-9	nt	28%	-3.4
11	C=CCNC(=S)NNC(=O)c1ccc(=O)n(Cc2ccc(Cl)cc2Cl)c1	5	1	-5	1%	-11%	-5.5
12	N=c1n(CC(=O)c2ccc(Br)s2)c2ccccc2n1Cc1ccccc1	1	-2	-15	11%	?	8.5
13	COc1ccc(C(C(=O)NC(C)(C)C)N(Cc2ccc(F)cc2)C(=O)CCC(=O)Nc2cc(C)on2)cc1 (centres undefined)	10	-3	-8	?	-26%[15.4 µM]	-2.0
14	CC(NCC(O)COCc1ccc(Cl)cc1)c1ccccc1 (centres undefined)	-1	5	-12	19%	14%	-0.9
15	O=C(O)Cc1csc2ccccc12	6	1	-20	-4%	-51%[inhibitor]	-3.7
16	Cc1noc(C)c1C(=O)NNc1cc(Cl)ccc1Cl	-2	4	-2	9%	-3%	-6.7
17	COc1cccc(C(=O)NCCS(=O)(=O)NCCc2ccc(OC)c(OC)c2)c1	-3	-9	-7	8%	7%[15.4 µM]	-2.1
18	Cc1ccc(S(=O)(=O)NCC(=O)N(CC(=O)NCC2CCCO2)c2cccc(F)c2)cc1 (centres undefined)	1	0	0	7%	-14%[15.4 µM]	-2.0
19	C#CCOCCOCCOCCNc1nc(N2CCN(C(=O)[C@H]([C@@H](C)CC)n3cc(CCCCN)nn3)CC2)nc(N2CCN(C(=O)[C@H](C)n3cc(CCC(=O)O)nn3)CC2)n1	0	4	-33	-2%	nt	0.2
20	O=C(Nc1nc(-c2cccs2)cs1)c1cccc(S(=O)(=O)N2CCCCC2)c1	-7	-8	-33	6%	-1%	-4.9

# From compound 1 to 17, as listed above:
item	structure	CtBP-E1A inh	Six1-Eya2 blk	D2 PAM	gsp antagonist	gsp ag	D2 ag
1	COc1ccc(CC(=O)Nc2ccc(S(=O)(=O)Nc3ncccn3)cc2)cc1	8	0	-7	20%	3%	-0.8
2	CN1CCN(C(=O)c2cc(COc3c(F)cccc3F)on2)CC1c1ccccc1 (centres undefined)	-12	-10	0	-6%	15%	-0.1
3	Cc1ccc(S(=O)(=O)NC(CC(=O)O)c2ccco2)cc1 (centres undefined)	1	2	-8	1%	-5%	0.3
4	CCN(c1ccccc1)S(=O)(=O)c1cc(C(=O)OC2CCOC2=O)ccc1C (centres undefined)	5	-1	1	?	-22%	-0.8
5	O=C1CC(=O)N(c2cccc(F)c2)N1	-9	-10	-1	-1%	?	-3.4
6	CN(NS(=O)(=O)c1ccc(Cl)cc1)c1ncc(C(F)(F)F)cc1Cl	5	1	0	-5%	1%	4.0
7	Cc1cc(C)n(-c2ccc(NC(=O)C3CCN(Cc4ccc(C)o4)CC3)cc2)n1	nt	2	-8	2%	21%	2.0
8	COC(=O)C1=C(C(=O)c2ccccc2)C(c2ccc(O)c(OC)c2)n2nnnc2N1 (centres undefined)	-1	9	-13	-14%	-19%	-3.9
9	Cc1ccc(CN(C)C(=O)c2cc(Br)c(Br)s2)o1	11	-5	-3	-11%	-63%[inhibitor]	3.1
10	Cc1ccc(F)cc1NC(=O)COC(=O)C1CC2CCCC(C1)C2=O (centres undefined)	1	-20	-9	nt	28%	-3.4
11	C=CCNC(=S)NNC(=O)c1ccc(=O)n(Cc2ccc(Cl)cc2Cl)c1	5	1	-5	1%	-11%	-5.5
12	N=c1n(CC(=O)c2ccc(Br)s2)c2ccccc2n1Cc1ccccc1	1	-2	-15	11%	?	8.5
13	COc1ccc(C(C(=O)NC(C)(C)C)N(Cc2ccc(F)cc2)C(=O)CCC(=O)Nc2cc(C)on2)cc1 (centres undefined)	10	-3	-8	?	-26%[15.4 µM]	-2.0
14	CC(NCC(O)COCc1ccc(Cl)cc1)c1ccccc1 (centres undefined)	-1	5	-12	19%	14%	-0.9
15	O=C(O)Cc1csc2ccccc12	6	1	-20	-4%	-51%[inhibitor]	-3.7
16	Cc1noc(C)c1C(=O)NNc1cc(Cl)ccc1Cl	-2	4	-2	9%	-3%	-6.7
17	COc1cccc(C(=O)NCCS(=O)(=O)NCCc2ccc(OC)c(OC)c2)c1	-3	-9	-7	8%	7%[15.4 µM]	-2.1

# Later entries.
item	structure	CtBP-E1A inh	Six1-Eya2 blk	D2 PAM	gsp antagonist	gsp ag	D2 ag
21	CNC(=O)CC1C(=O)N(C)C(=S)N1NC(=O)c1ccccc1 (centres undefined)	-1	-1	-16	21%	-1%[15.4 µM]	-7.7
22	Cc1ccc(N2C(=O)NC(NC(=O)C(C)(C)C)(C(F)(F)F)C2=O)cc1 (centres undefined)	14	7	-1	0%	29%[15.4 µM]	-2.1
23	COc1ccc(OC)c(S(=O)(=O)N2CCCC2C(=O)NC(C)c2ccccc2)c1 (centres undefined)	2	2	4	3%	?	1.2
24	Cc1cc2cc(CNC(=S)Nc3ccc(OC(F)(F)F)cc3)ccc2[nH]1	-1	-13	-7	-3%	-11%	-3.2
25	O=S1(=O)CC(O)C(N=Nc2c(O)n(Cc3ccccc3)c3ccccc23)C1 (centres undefined)	-1	-3	-18	-12%	15%	-5.7
26	CCOC(=O)N1CCN(C(=O)c2cc3c(s2)-c2ccccc2OC3)CC1	1	-4	2	-6%	14%	4.5
27	CCCCC1NC(C(=O)O)CS1 (centres undefined)	-3	-1	-7	-5%	4%[15.4 µM]	-5.2
28	CC(C)(C)c1ccc(NC(=O)c2cc(C3CCCN(S(=O)(=O)c4cccc5cccnc45)C3)on2)cc1 (centres undefined)	-6	-4	-1	nt	nt	1.9
29	COc1ccc(Oc2cccc(Cl)c2CNC(=O)CCCC(=O)O)cc1	nt	0	-4	-8%	12%	-5.7
30	CCC(C(=O)OCC(=O)N1CCN(c2ccc(OC)cc2)CC1)c1ccccc1 (centres undefined)	nt	-28	-6	-13%	-17%	-1.5
31	COC(=O)c1cc(S(=O)(=O)NC2CCN(Cc3ccccc3)CC2)cn1C	3	3	-31	3%	-42%[inhibitor]	0.1
32	O=C(CCNS(=O)(=O)c1ccccc1F)N1CCN(C/C=C/c2ccccc2)CC1	7	7	1	-7%	9%[15.4 µM]	0.5
33	CCc1nn2c(N(C)CCO)cc(C)nc2c1-c1ccc(F)cc1	2	-1	1	-17%	-6%	-4.9
34	CC(=O)NCC12CC3CC(C1)CC(C(=O)O)(C3)C2	9	5	-2	1%	?	0.2
35	CN(C)c1nn(C(=O)Nc2cccc(C(F)(F)F)c2)cc1-c1ccccc1	-1	-2	-9	-7%	10%	-0.8
36	O=C(NN=Cc1ccccc1Cl)c1ccc(-n2cnnn2)cc1	nt	-3	-1	-19%	-27%	6.0

# Bioassay records (PubChem BioAssay)
